CBX7 AlphaScr: CBX7 inhibition, primary AlphaScreen; O95931; actives 1.1% (n = 66,000); AlphaScreen His6-CBX7 / biotin-H3K27me3 peptide binding; stronger effect = lower value; normalised signal (fraction of DMSO) (test concentration not listed); in the data active = normalised signal below about 0.5;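 also: 100 nL library stock added to about 20 µL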
Target sequence (O95931 whole entry, looked up): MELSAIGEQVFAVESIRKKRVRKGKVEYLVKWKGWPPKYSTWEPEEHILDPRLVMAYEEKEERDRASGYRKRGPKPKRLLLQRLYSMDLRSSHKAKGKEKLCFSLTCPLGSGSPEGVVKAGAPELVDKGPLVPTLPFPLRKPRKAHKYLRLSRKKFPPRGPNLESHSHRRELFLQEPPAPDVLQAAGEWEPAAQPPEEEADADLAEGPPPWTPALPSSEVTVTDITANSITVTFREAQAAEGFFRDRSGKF
CBX7 AlphaScr z-score: further read-out of CBX7 AlphaScr, marked with its call; z-score; measured here: z-score of CBX7 signal; some inactives read as strong as hits; reference of the scale not given here;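 same signal on another scale; lower means less binding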
Numbers without * were called inactive; & = joins results of further samples. These rows are one share of the data; the hit share may differ from the screen's.

SMILES | CBX7 AlphaScr | CBX7 AlphaScr z-score
Cc1ccc(CNC(=O)C(Cc2ccccc2)NS(=O)(=O)c2cccs2)cc1 (centres undefined) | 1.01 | 0.396
Cc1ccc2c(c1)N(CC(=O)N(C)Cc1ccccc1)C(=O)CO2 | 1.11 | 1.84
CCCn1c(CCNC(=O)c2ccc(F)cc2)nc2ccccc21 | 1.03 | 0.655
CC(C)CCNC(=O)Cn1nc(-c2ccc(Cl)cc2)ccc1=O | 1.04 | 1.66
COCCNC(=O)CCc1c(C)nc2cc(-c3ccccc3)nn2c1C | 1.05 | 1.66
Cc1csc(NC(=O)CCc2c(C)nc3cc(-c4ccc(Cl)cc4)nn3c2C)n1 | 1.1 | 1.92
COc1ccccc1CNC(=O)CCCN1C(=O)CSc2ncccc21 | 1.02 | 0.235
O=C(c1ccc(NC2=NC3CS(=O)(=O)CC3S2)cc1)N1CCc2ccccc2C1 (centres undefined) | 0.928 | -0.544
Cc1ccccc1C(=O)Nc1c(C(=O)Nc2ccc(F)cc2)oc2ccccc12 | 0.992 | -0.104
Cc1cc(C)cc(NC(=O)Nc2ccc3c(c2)N(C)C(=O)CS3)c1 | 0.976 | -0.533
Cc1cc(C)cc(N2CC(c3nc4ccccc4n3Cc3ccccc3F)CC2=O)c1 (centres undefined) | 0.904 | -0.602
COc1ccc(N2Cc3cccc(C(=O)NC4CCCCCC4)c3C2=O)cc1 | 1.03 | 0.53
CCN(CC)CCNC(=O)c1ccc2c(c1)ncn2C1CCCC1 | 0.982 | -0.546
CC1(C)CC(=O)c2cc(C(=O)Nc3ccccc3Br)c(=O)n(-c3ccccc3)c2C1 | 1.02 | 0.0922
COc1ccc(NC(=O)c2oc3ccc(S(=O)(=O)N4CC(C)CC(C)C4)cc3c2C)cc1Cl (centres undefined) | 0.975 | -0.984
O=C(NCCc1ccc(Cl)cc1)c1ccc(CNc2c(NC3CCCC3)c(=O)c2=O)cc1 | 0.934 | -0.151
CCOc1ccc(CCNC(=O)c2cc3c(s2)-c2ccccc2OC3)cc1OCC | 1.01 | 0.209
Cc1sc2ncn(CC(=O)Nc3ccc(F)cc3F)c(=O)c2c1C | 0.977 | -0.62
CCOc1ccc(CN2C(=O)CCC2(C)C(=O)NC2CCC(C)CC2)cc1OC (centres undefined) | 1.21 | 2.67
COc1ccc(C2=NOC(C(=O)NC(C)C)C2)cc1 (centres undefined) | 1.09 | 1.21
COC(=O)c1ccc(NC(=O)COc2ccccc2C(C)(C)C)cc1 | 0.957 | -0.0992
O=C(Nc1ccccc1C(F)(F)F)c1c(O)c2ccccc2[nH]c1=O | 0.902 | -1.26
COc1cccc(/C=C/c2nc3ccccc3c(=O)n2-c2cccc(Cl)c2C)c1OC | 1.08 | 4.04
O=C(NCc1ccccc1Cl)C1CCN(S(=O)(=O)c2cccc3cccnc23)CC1 | 0.921 | -1.02
Cc1noc(C)c1S(=O)(=O)N1CCCC(C(=O)Nc2ccc(Cl)cc2)C1 (centres undefined) | 1.06 | 0.475
COc1ccccc1CNC(=O)C1CCN(Cc2nc(-c3cccc(Cl)c3)oc2C)CC1 | 0.996 | -0.0356
CCc1ccc(NC(=O)c2cnc3sccn3c2=O)cc1 | 0.949 | -0.427
COc1ccccc1OC(C)C(=O)Nc1c(C(=O)c2ccccc2)oc2ccccc12 (centres undefined) | 1.18 | 2.42
CCCCNC(=O)C1CC(=O)N(c2ccc(Cl)cc2)C1 (centres undefined) | 0.848 | -0.207
COc1ccc(Nc2nnc(-c3ccc(C)c(S(=O)(=O)N(C)C)c3)c3ccccc23)cc1 | 0.982 | -0.471
CN(C)c1ccc(C2Nc3ccc4ncccc4c3C3=C2C(=O)CCC3)cc1 (centres undefined) | 1.28 | 0.561
CC(C)Cn1c(CCCNC(=O)C(C)(C)C)nc2ccccc21 | 1.15 | 1.59
COc1cc(NC2c3ccccc3C(=O)N2c2ccc(Cl)cn2)cc(OC)c1 (centres undefined) | 0.72 | -3.98
COc1ccc(Nc2cc(C(=O)NC3CCCC3)c3ccccc3n2)c(OC)c1 | 0.89 | -1.69
COc1cccc(C(=O)Nc2ccc(S(=O)(=O)Nc3ncccn3)cc2)c1 | 0.889 | -1.28
CCN(CC)C(=O)c1ccc2c(c1)N(Cc1ccccc1F)C(=O)c1ccccc1S2(=O)=O | 0.955 | -1.08
Cc1ccc(CNC(=O)c2cc3sccc3n2Cc2ccc(Cl)cc2)cc1 | 0.894 | -2.92
CCOc1ccccc1NC(=O)CN1C(=O)CC(c2ccc(OC)c(OC)c2)Sc2ccccc21 (centres undefined) | 0.804 | -2.78
CC1CCN(S(=O)(=O)c2ccc(C(=O)Nc3cccc(-c4nc5ccccc5[nH]4)c3)cc2)CC1 | 0.957 | -0.993
COc1ccc(Cc2noc(-c3cc(-c4ccncc4)nc4ccccc34)n2)cc1 | 0.486* | -5.79*
COc1ccc(-c2nc(C(=O)NCCCN3CCOCC3)c(C)o2)cc1OC | 1.09 | 1.47
CCCCCCOc1ccc(N2C(=O)CC(N3CCN(c4ncccn4)CC3)C2=O)cc1 (centres undefined) | 1.51 | 3.72
NCCC(=O)NC(Cc1cnc[nH]1)C(=O)O (centres undefined) | 0.876 | -1.89
O=C1CC(N2CCN(c3ccccn3)CC2)C(=O)N1c1ccccc1F (centres undefined) | 1.09 | 0.77
Cc1ccc(CC(=O)Nc2ccc(S(=O)(=O)Nc3nccc(C)n3)cc2)cc1 | 0.977 | -0.534
O=S(=O)(Cc1cccc(C(F)(F)F)c1)c1nc2ncccc2[nH]1 | 1.02 | 0.626
COc1ccccc1CNS(=O)(=O)c1cnc[nH]1 | 0.99 | -0.021
CCOC(=O)c1cnc2ccc(OCC)cc2c1Nc1cc(Cl)c(OC)cc1OC | 0.876 | -1.41
O=C(Cn1nc(Cc2ccncc2)c2ccccc2c1=O)Nc1cc(F)ccc1F | 1.07 | 0.676
COc1ccc(CNC(=O)c2cc3c(s2)-c2ccccc2OC3)c(OC)c1 | 1.37 | 8.94
CC1CCCCC1NC(=O)C1c2cccn2CC(=O)N1C1CCCC1 (centres undefined) | 0.927 | -1.39
Cc1ccc(NC(=O)C(=O)NCc2ccccc2)cc1C | 1.02 | 0.573
O=C1c2ccccc2C(Nc2cccc(C(F)(F)F)c2)N1Cc1ccccc1Cl (centres undefined) | 0.998 | -0.00523
COc1cccc(CNCc2cccnc2)c1OCc1ccc(F)cc1 | 0.713 | -3.13
COc1cc(N2C(=O)c3ccc(C(=O)O)cc3C2=O)c(OC)cc1Cl | 0.877 | -1.33
Cc1ccc(NC(=O)C2CCCN(C(=O)c3cnn(-c4ccccc4)c3-n3cccc3)C2)cc1 (centres undefined) | 0.947 | -2.67
CCc1ccc(-c2nc(C(=O)NCCc3ccc(Cl)cc3)c(C)o2)cc1 | 0.942 | -1.06
CCOc1ccc(NC(=O)C(Cc2ccccc2)N2C(=O)c3ccccc3C2=O)cc1 (centres undefined) | 0.704 | -1.19
CCOC(=O)c1cnc2ccc(OC)cc2c1Nc1ccc(N(C)C)cc1 | 0.258* | -2.61*
COc1ccc(OC)c(Nc2nnc(C)c(=O)[nH]2)c1 | 1.04 | 0.0417
Continued.
SMILES | CBX7 AlphaScr | CBX7 AlphaScr z-score
C=CCn1c(SCC(=O)Nc2ccc(C(C)=O)cc2)nnc1-c1cccnc1 | 0.973 | -0.778
CCN1CCN(c2ncc(C(=O)Nc3c(F)cc(F)cc3Br)c3ccccc23)CC1 | 1.3 | 3.05
COc1ccc(Cl)cc1NC(=O)c1c(NCc2sccc2C)sc2c1CCCC2 | 0.388* | -8.57*
CCCn1c(C(O)c2ccc(OC)cc2)nc2ccccc21 (centres undefined) | 1&1 | 0.015&0.0105
CCCCc1ccc(NCc2nc(-c3ccc(C)cc3)no2)cc1 | 1.16 | 4.44
O=C(Nc1cccc(F)c1)c1cc(S(=O)(=O)N2CCOCC2)cs1 | 1.06 | 1.43
CCN(c1ccccc1)S(=O)(=O)c1ccc(C(=O)Nc2nnc(COC)o2)cc1 | 0.787 | -4.82
CC(C)NC(=O)c1ccc2c(c1)N(Cc1ccc(Cl)cc1)CCS2 | 1.02 | 0.532
COCCNC(=O)CCn1nc(-c2ccc(C)cc2)c2ccccc2c1=O | 0.957 | -1.21
Cc1ccccc1Cc1c(C)nc2nc(SCC(=O)NC3CCCCC3)nn2c1C | 1.01 | 0.515
Cc1nc2cc(C(=O)NCC3CCCO3)ccc2n1-c1cccc(F)c1 (centres undefined) | 1.03 | 1.44
c1ccc2c(c1)nc(N1CCCC1)c1nncn12 | 1.06 | 0.643
COc1cc(OC)c(NC(=O)CNC(=O)Cn2ccc3ccccc3c2=O)cc1Cl | 0.961 | -0.327
N#Cc1nc(COc2ccccc2Cl)oc1N1CCN(Cc2ccccc2)CC1 | 0.689 | -13.6
CCn1c(-c2nonc2NC(=O)c2ccccc2Cl)nc2ccccc21 | 1.12 | 1.74
CN(C(=O)Cc1c(C(=O)O)n(C)c2ccccc12)c1ccc(Br)cc1 | 1.05 | 1.05
CC(=O)Nc1cccc(Oc2nc(-c3ccccc3F)nc3ccccc23)c1 | 1.43 | 0.87
CCc1ccc(OCC(=O)N(Cc2ccc(Cl)cc2)C2CCS(=O)(=O)C2)cc1 (centres undefined) | 0.849 | -0.15
Cc1cc(C)cc(OCC(=O)N(Cc2ccc(N(C)C)cc2)C2CCS(=O)(=O)C2)c1 (centres undefined) | 1.02 | 0.211
COc1cccc(Nc2nc(-c3cccc(N4C(=O)c5ccccc5C4=O)c3)cs2)c1 | 1.25 | 1.86
CCOC(=O)c1ccc(NC(=O)c2cc3c(n(-c4ccc(C)cc4)c2=O)CC(C)(C)CC3=O)cc1 | 1.11 | 1.26
Cc1ccc2cc(CCNC(=O)c3ccc(F)cc3)c(=O)[nH]c2c1 | 0.834 | -2.14
O=C(NCc1ccc(F)cc1)c1ccc2c(c1)N(Cc1ccc(F)cc1)C(=O)CS2=O (centres undefined) | 1.17 | 3.4
COc1ccc(-c2csc(Nc3cccc4ccccc34)n2)cc1F | 0.71&0.782 | -4.45&-2.81
COC(CNC(=O)c1ccc2c(c1)N=C(C)c1ccccc1S2)OC | 1.03 | 0.381
O=C(Nc1nc(-c2ccc(Oc3ccccc3)cc2)cs1)C1CCCCC1 | 1.36 | 1.26
CCCCc1nc2ccccc2n1C(=O)c1ccccc1C(=O)O | 1.54 | 2.36
COc1ccc(-c2cc(C(F)(F)F)nc(S(=O)(=O)CCCC(=O)O)n2)cc1OC | 1.1 | 0.972
CN(C)S(=O)(=O)c1cccc(-c2cn3cccnc3n2)c1 | 0.998 | -0.0716
COc1cccc(NS(=O)(=O)c2ccc3[nH]cc(C(=O)N4CCc5ccccc54)c(=O)c3c2)c1 | 0.941 | -0.743
COc1ccc(CCNC(=O)Cn2nc(Cc3ccncc3)c3ccccc3c2=O)cc1OC | 1.01 | 0.257
COc1cc(-c2nc(-c3ccccc3)c(-c3ccccc3)[nH]2)ccc1O | 1.07 | 0.536
Cc1cccc(NC(=O)c2cc(S(=O)(=O)N3CCC(C)CC3)ccc2F)c1 | 0.993 | -0.0814
CCCCN(C)CCCNC(=O)c1cc(=O)[nH]c2ccc(S(=O)(=O)N3CCCCC3C)cc12 (centres undefined) | 0.982 | -0.545
Cc1ccc2c(c1)N(CC(=O)NCc1ccc3c(c1)OCO3)C(=O)CO2 | 0.99 | -0.464
COc1cccc(-c2nc(CS(=O)(=O)CC(=O)Nc3cc(OC)ccc3OC)c(C)o2)c1 | 0.818 | -3.04
O=C1CN(C(=O)C2CC2)C(c2ccc(F)cc2)c2cc(Cl)ccc2N1 (centres undefined) | 1 | 0.0248
Cc1cccc(N2CCN(C(=O)Cn3ncc4c3-c3ccccc3OC4)CC2)c1C | 0.638 | -10.4
Cc1ccccc1Nc1c(-c2cccc(Cl)c2)nc2ccc(Br)cn12 | 0.863 | -1.4
Cc1nc2c(-c3ccc(F)cc3)c(C)nn2c(C)c1CCC(=O)Nc1ccc(Cl)cc1 | 1.05 | 1.56
CCOc1ccc(NC(=O)c2c(NCc3cccn3C)sc3c2CCC3)cc1 | 0.808 | -9.98
COc1ccc(Cn2c(C(C)C)nc3ccccc32)cc1OC | 1.03 | 1.49
COc1ccc(OC)c(CN2C(=O)c3ccccc3C2C(=O)NCC2CCCO2)c1 (centres undefined) | 1.02 | 0.0264
O=C(Nc1cc(F)ccc1F)c1cc2c(s1)-c1ccccc1OC2 | 1.18 | 2.52
